Bioassay records as filed in PubChem.
Vaccinia inh – Vaccinia orthopox stage-specific inhibition; Vaccinia-infected cells, mCherry/Venus stage reporter fluorescence; hits give low values; some inactives read as strong as hits; activity change (mCherry), % (test concentration not listed); hit rate 0.01% among 89,000; AID 1053133;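 active = mCherry past -33% and 40 or more points under the early reporter, replicates agreeing; inconclusive = past -33% without that gap or agreement; tested in A549 cells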;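 note: scaled between vehicle wells and reference inhibitor wells; 23 nL library stock went into each well; one replicate is shown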
Vaccinia inh Venus – further read-out of Vaccinia inh, marked with its call; activity change (Venus), %; measured here: Venus reporter, other viral stage;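 negative = less Venus signal; first of two replicates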
* hit, by the source's call; ? = inconclusive; nt = no result given. Only part of the results is shown (hit frequency here may not be typical).

SMILES | Vaccinia inh | Vaccinia inh Venus
C[C@H]1CN([C@@H](C)CO)C(=O)c2cc(C#Cc3ccccc3F)cnc2O[C@@H]1CN(C)S(=O)(=O)c1ccccc1 | -26 | -14
COc1ccc(-c2cnc3c(c2)C(=O)N([C@H](C)CO)C[C@@H](C)[C@H](CN(C)Cc2cccnc2)O3)cc1 | 6 | -2
C[C@@H]1CN([C@@H](C)CO)C(=O)CCCn2nncc2CO[C@H]1CN(C)Cc1ccc(C(=O)O)cc1 | 20 | 12
C[C@H](CO)N1C[C@H](C)[C@H](CN(C)C(=O)Nc2cccc3ccccc23)Oc2c(NC(=O)Nc3ccc(F)cc3)cccc2C1=O | -12 | -12
CO[C@H]1CN(C)C(=O)c2ccc(NC(=O)C3CC3)cc2OC[C@H](C)N(CC2CC2)C[C@H]1C | 3 | 11
CCOC(=O)CCCCCC(=O)Nc1ccc2c(c1)C(=O)N([C@H](C)CO)C[C@H](C)[C@H](CN(C)C(=O)C1CCCCC1)OCCCC[C@@H](C)O2 | -4 | 0
O=C(C[C@@H]1C=C[C@H](NC(=O)Nc2ccc(F)cc2)[C@@H](CO)O1)NCc1ccccn1 | 0 | -2
O=C(C[C@H]1CC[C@@H](NC(=O)c2ccc3c(c2)OCO3)[C@@H](CO)O1)NC1Cc2ccccc2C1 | -15 | -4
CCCNC(=O)Nc1ccc2c(c1)C(=O)N(C)C[C@H](OC)[C@@H](C)CN(C(=O)C1CCCCC1)[C@H](C)CO2 | -2 | -3
COc1ccc(S(=O)(=O)N(C)C[C@@H]2Oc3c(NC(=O)Nc4cccc5ccccc45)cccc3C(=O)N([C@H](C)CO)C[C@H]2C)cc1 | 3 | 6
CN1C(=O)c2cc(NC(=O)C3CCCC3)ccc2OC[C@@H]2O[C@@H](CC(=O)NCCc3ccncc3)CC[C@H]21 | 2 | 6
O=C(C[C@@H]1CC[C@H]2[C@@H](COC[C@@H](O)CN2Cc2cccc(F)c2)O1)NCc1ccncc1 | 4 | -5
N#C[C@@H]1[C@H](c2ccc(C3=CCCCC3)cc2)[C@@H](CO)N1S(=O)(=O)c1cccc(F)c1 | -16 | -3
Cc1cccc(S(=O)(=O)N2C[C@@H]3[C@H](c4ccccc42)[C@@H](CO)N3CC2CCOCC2)c1 | 5 | 5
CO[C@@H](CN(C)CC1CCOCC1)[C@@H](C)CN(C(=O)Nc1ccc(F)cc1)[C@@H](C)CO | 7 | 10
C[C@H]1CN([C@@H](C)CO)C(=O)c2cccc(NS(=O)(=O)c3ccccc3)c2O[C@H]1CN(C)C(=O)Nc1cccc2ccccc12 | 21 | 35
CC=Cc1ccc2n(c1=O)C[C@@H]1[C@@H](CO)[C@H](C(=O)NCC3CC3)N(C(=O)C3CCOCC3)[C@H]21 (mixture of isomers) | 5 | 13
C[C@H]1CN([C@@H](C)CO)C(=O)c2ccccc2-c2ccccc2CO[C@@H]1CN(C)C(=O)[C@@H](Cc1ccccc1)N(C)C | ? | nt
C[C@@H]1CN([C@H](C)CO)C(=O)Cc2cc(NC(=O)CCCN(C)C)ccc2O[C@@H]1CN(C)S(=O)(=O)c1ccc(Cl)cc1 | 2 | 4
O=C(C[C@@H]1CC[C@@H](NS(=O)(=O)c2cccc(F)c2)[C@@H](CO)O1)N1CCCCC1 | 17 | 10
COC(=O)[C@@H]1[C@@H](CO)[C@@H]2Cn3c(cccc3=O)[C@@H]2N1CC1CCOCC1 | 3 | 49
CCNC(=O)c1cc2c(c(-c3cccc(-c4cccc(F)c4)c3)n1)[C@H](CCO)N([S@@](=O)C(C)(C)C)C2 | ? | nt
C[C@@H]1CN([C@@H](C)CO)C(=O)c2cc(NC(=O)Nc3cccc4ccccc34)ccc2O[C@@H]1CN(C)Cc1ccc(C(=O)O)cc1 | 11 | 3
CC(C)CC#Cc1ccc2c(c1)O[C@H](CN(C)CC1CCOCC1)[C@H](C)CN([C@H](C)CO)S2(=O)=O | -23 | -22
O=C(Cc1ccccn1)N1CC2(C1)[C@H](c1ccccc1)[C@@H](CO)N2Cc1ccccn1 | 10 | 11
(more compounds)
SMILES | Vaccinia inh | Vaccinia inh Venus
CCCN1[C@@H]2c3ccc(-c4ccccc4F)c(=O)n3C[C@@H]2[C@@H](CO)[C@@H]1C(=O)NC1CCC1 | -8 | 1
CCCNC(=O)C[C@@H]1CC[C@H]2[C@@H](COc3ccc(NC(=O)c4cccc(F)c4)cc3C(=O)N2C)O1 | 7 | 1
O=C(C1CC1)N1CC(=O)N2[C@H](C1)[C@@H](c1ccc(C#Cc3cccc(F)c3)cc1)[C@@H]2CO | ? | nt
C[C@@H]1CN([C@@H](C)CO)C(=O)c2cc(C#CC3CCCCC3)cnc2O[C@H]1CN(C)Cc1cccnc1 | -27 | -11
O=C(Nc1ccccc1F)N1CC(=O)N2[C@H](CO)[C@@H](c3ccc(C#Cc4ccc(F)cc4)cc3)[C@@H]2C1 | ? | nt
C[C@@H]1CCCCO[C@H](CN(C)S(=O)(=O)c2ccccc2)[C@@H](C)CN([C@@H](C)CO)C(=O)c2cc(NC(=O)Nc3ccccc3)ccc2O1 | -1 | -5
CCC(=O)N1[C@H](CO)[C@@H](c2ccc(-c3ccccc3OC)cc2)C12CN(C(C)=O)C2 | -3 | 6
C[C@H]1CN([C@@H](C)CO)C(=O)CCCn2cc(nn2)CO[C@H]1CN(C)Cc1ccc2cccnc2c1 | 7 | 5
C[C@@H]1CN([C@H](C)CO)S(=O)(=O)c2ccc(C#CC3CC3)cc2O[C@@H]1CN(C)C | 13 | -8
O=C(C[C@@H]1CC[C@H](NC(=O)c2ccccc2)[C@H](CO)O1)NCCc1ccncc1 | 3 | 1
C[C@@H]1CCCCO[C@H](CN(C)Cc2ccc(Cl)c(Cl)c2)[C@H](C)CN([C@@H](C)CO)C(=O)c2cc(NC(=O)c3ccccc3)ccc2O1 | ? | nt
Cc1noc(C)c1S(=O)(=O)Nc1ccc2c(c1)C(=O)N([C@@H](C)CO)C[C@H](C)[C@@H](CN(C)CC1CCCCC1)OCCCC[C@@H](C)O2 | ? | nt
Cc1ccc(S(=O)(=O)N[C@H]2CC[C@@H](CCNS(=O)(=O)Cc3ccccc3)O[C@@H]2CO)cc1 | ? | nt
COc1ccc(CN(C)C[C@@H]2OCCCC[C@H](C)Oc3ccc(NC(=O)NC4CCCCC4)cc3C(=O)N([C@@H](C)CO)C[C@H]2C)cc1 | ? | nt
COCC(=O)N(C)C[C@@H]1[C@@H](c2ccccc2)[C@H](CO)N1C(=O)Cc1ccncc1 | 3 | 6
CC(C)NC(=O)Nc1ccc2c(c1)CC(=O)N([C@H](C)CO)C[C@@H](C)[C@H](CN(C)Cc1ccc3c(c1)OCO3)O2 | 8 | 16
C[C@@H]1CCCCO[C@@H](CN(C)C(=O)Nc2ccccc2)[C@H](C)CN([C@H](C)CO)C(=O)c2cc(NC(=O)CCC(F)(F)F)ccc2O1 | 8 | 11
CC(C)NC(=O)Nc1ccc2c(c1)C(=O)N([C@H](C)CO)C[C@@H](C)[C@@H](CN(C)C(=O)Nc1ccc(C(F)(F)F)cc1)O2 | 3 | 1
CC(=O)N(C)C[C@H]1Oc2cc(C#Cc3ccccc3F)ccc2S(=O)(=O)N([C@H](C)CO)C[C@H]1C | ? | nt
C[C@H]1CN([C@@H](C)CO)C(=O)c2cccc(NC(=O)c3ccncc3)c2O[C@H]1CN(C)C(=O)Nc1cccc2ccccc12 | 40 | 23
C[C@H](NC(=O)C[C@H]1CC[C@@H](NC(=O)C2CCC2)[C@H](CO)O1)c1ccccc1 | 8 | 8
O=C(C[C@@H]1C=C[C@H](NS(=O)(=O)c2ccc(F)cc2)[C@H](CO)O1)NCc1ccc(Cl)c(Cl)c1 | ? | nt
O=C(N[C@H]1CC[C@@H](CCn2cc(-c3ccccc3)nn2)O[C@H]1CO)c1ccccc1F | -1 | 0
O=C(NCC[C@H]1CC[C@H](NC(=O)C2CC2)[C@H](CO)O1)Nc1ccc(Cl)cc1 | -2 | 2
CC(C)CC#Cc1ccc2c(c1)O[C@H](CN(C)C(=O)Cc1ccccn1)[C@H](C)CN([C@@H](C)CO)S2(=O)=O | -9 | -5
Further entries
SMILES | Vaccinia inh | Vaccinia inh Venus
COCC#Cc1ccc([C@@H]2[C@H](CO)N3C(=O)CN(C(=O)CN4CCOCC4)C[C@@H]23)cc1 | 13 | 6
O=C(C[C@H]1C[C@H]2c3cc(NC(=O)Nc4ccc(C(F)(F)F)cc4)ccc3O[C@H]2[C@H](CO)O1)NC1CCCCC1 | 10 | 12
Cc1ccc(S(=O)(=O)N[C@@H]2CC[C@H](CCNC(=O)c3ccccc3F)O[C@H]2CO)cc1 | -6 | -4
COc1ccc2c3c([nH]c2c1)[C@@H](CO)N(Cc1nccs1)CC31CN(Cc2ccncc2)C1 | 4 | 9
O=C(C[C@@H]1C[C@H]2c3cc(NC(=O)Nc4ccc(C(F)(F)F)cc4)ccc3O[C@H]2[C@H](CO)O1)NCc1cc(F)ccc1F | ? | nt
C[C@@H]1CN([C@@H](C)CO)C(=O)c2cccc(NC(=O)c3ccc(-c4nccs4)cc3)c2O[C@@H]1CN(C)Cc1ccccc1 | -3 | -1
O=C(C[C@@H]1CC[C@H](NC(=O)Cc2ccccn2)[C@H](CO)O1)NCCc1ccccc1 | 4 | 4
C[C@@H]1CN([C@H](C)CO)C(=O)Cc2cc(NC(=O)NC3CCCCC3)ccc2O[C@H]1CN(C)Cc1ccncc1 | 6 | 6
CCN1[C@H](C(=O)OC)[C@@H](CO)[C@@H]2Cn3c(ccc(-c4cccc(F)c4)c3=O)[C@@H]21 | 12 | 12
N#C[C@H]1[C@H](c2ccc(C#Cc3ccc(F)cc3)cc2)[C@H](CO)N1C(=O)Cc1ccncc1 | -25 | -4
CCCNC(=O)Nc1ccc2c(c1)OC[C@H](C)N(Cc1ccccc1)C[C@H](C)[C@@H](OC)CN(C)C2=O | -12 | -10
COc1ccc(S(=O)(=O)N(C)C[C@H]2Oc3ccc(NC(=O)CCCN(C)C)cc3C(=O)N([C@H](C)CO)C[C@@H]2C)cc1 | 17 | 9
COCCNC(=O)[C@@H]1[C@@H](CO)[C@@H]2Cn3c(ccc(-c4ccccc4OC)c3=O)[C@@H]2N1C(=O)C1CCC1 | 3 | 0
COc1cccc(NC(=O)N(C)C[C@H]2OCc3ccccc3-c3c(n(C)c4ccccc34)C(=O)N([C@H](C)CO)C[C@@H]2C)c1 | 22 | 13
COc1ccc(C[C@@H]2CCn3cc(nn3)COC[C@@H](CC(C)C)NC2=O)cc1 | 17 | 16
COc1ccc(-c2cn(CC(=O)N3CCN(C)CC3)nn2)cc1OC | 27 | 20
C[C@@H]1CN([C@@H](C)CO)C(=O)c2cc(C#CCN(C)C)cnc2O[C@H]1CN(C)Cc1ccc(F)cc1 | 0 | 2
Cc1noc(C)c1C(=O)N(C)C[C@@H]1OCc2ccccc2-c2ccccc2C(=O)N([C@H](C)CO)C[C@@H]1C | 22 | 10
Cc1noc(C)c1NC(=O)NCC[C@@H]1CC[C@@H](NC(=O)c2ccc(F)cc2)[C@H](CO)O1 | 12 | 6
C[C@H](CO)N1C[C@H](C)[C@H](CN(C)Cc2ccc(C(=O)O)cc2)OCCCC[C@H](C)Oc2ccc(NC(=O)Cc3ccccc3)cc2C1=O | 25 | 12
C[C@H]1CN([C@@H](C)CO)C(=O)c2cc(NC(=O)CCN3CCOCC3)ccc2O[C@@H]1CN(C)S(=O)(=O)c1ccc(Cl)cc1 | 13 | 15
O=C(c1ccc(F)cc1)N1C[C@H]2[C@@H](c3ccccc31)[C@H](CO)N2Cc1ccc2c(c1)OCO2 | 8 | 6
C[C@@H]1CN([C@H](C)CO)C(=O)c2cc(-c3cccnc3)cnc2O[C@@H]1CN(C)C(=O)Nc1ccc(F)cc1 | 29 | 3
CC(=O)N1CC(=O)N2[C@H](C1)[C@@H](c1ccc(C#Cc3cccnc3)cc1)[C@@H]2CO | 14 | 5
O=C(CN1CCOCC1)NCC[C@@H]1CC[C@@H](NC(=O)Nc2ccccc2)[C@H](CO)O1 | 8 | 17
Cc1noc(C)c1NC(=O)N(C)C[C@H]1Oc2c(NC(=O)C3CCOCC3)cccc2C(=O)N([C@H](C)CO)C[C@H]1C | 3 | 4
C[C@H](CO)N1C[C@H](C)[C@@H](CN(C)C(=O)Nc2ccccc2C(F)(F)F)OCc2cnnn2CCCC1=O | 2 | 19
CN1C[C@@H]2[C@H](c3ccccc31)[C@H](CO)N2C(=O)C1CCCCC1 | 9 | -3
CCCNC(=O)C[C@H]1CC[C@@H]2[C@H](COC[C@H](O)CN2C(=O)Nc2c(C)noc2C)O1 | 6 | 10

In the list so far, 10 contain an aryl methoxy group:
SMILES | Vaccinia inh | Vaccinia inh Venus
COc1ccc(-c2cnc3c(c2)C(=O)N([C@H](C)CO)C[C@@H](C)[C@H](CN(C)Cc2cccnc2)O3)cc1 | 6 | -2
COc1ccc(S(=O)(=O)N(C)C[C@@H]2Oc3c(NC(=O)Nc4cccc5ccccc45)cccc3C(=O)N([C@H](C)CO)C[C@H]2C)cc1 | 3 | 6
CCC(=O)N1[C@H](CO)[C@@H](c2ccc(-c3ccccc3OC)cc2)C12CN(C(C)=O)C2 | -3 | 6
COc1ccc(CN(C)C[C@@H]2OCCCC[C@H](C)Oc3ccc(NC(=O)NC4CCCCC4)cc3C(=O)N([C@@H](C)CO)C[C@H]2C)cc1 | ? | nt
COc1ccc2c3c([nH]c2c1)[C@@H](CO)N(Cc1nccs1)CC31CN(Cc2ccncc2)C1 | 4 | 9
COc1ccc(S(=O)(=O)N(C)C[C@H]2Oc3ccc(NC(=O)CCCN(C)C)cc3C(=O)N([C@H](C)CO)C[C@@H]2C)cc1 | 17 | 9
COCCNC(=O)[C@@H]1[C@@H](CO)[C@@H]2Cn3c(ccc(-c4ccccc4OC)c3=O)[C@@H]2N1C(=O)C1CCC1 | 3 | 0
COc1cccc(NC(=O)N(C)C[C@H]2OCc3ccccc3-c3c(n(C)c4ccccc34)C(=O)N([C@H](C)CO)C[C@@H]2C)c1 | 22 | 13
COc1ccc(C[C@@H]2CCn3cc(nn3)COC[C@@H](CC(C)C)NC2=O)cc1 | 17 | 16
COc1ccc(-c2cn(CC(=O)N3CCN(C)CC3)nn2)cc1OC | 27 | 20
